# Assay outcomes from PubChem BioAssay.
# gsp ag = activates gsp, the McCune-Albright syndrome mutation; Potency, µM (doses to about 76.9 µM), for inactives: at the top dose activation (cAMP increase), hits mostly activators; AID 624287; gsp mutant cells, cAMP HTRF, 30 min; control for the full effect not named in the record; actives 0.13% (n = 340,000); active = well fitted activation curve with a large enough effect; inconclusive = small, poorly fitted or top-dose-only effect, or another doubt; inactive = no such curve, though single readings can be large or run the other way; cell line not stated here;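 note: phosphodiesterase inhibitor Ro 20-1724 added with compounds to block cAMP breakdown; potency is the fitted concentration of half-maximal effect; nearly all actives have a fitted effect of over 60% in size; about a fifth of the inactives were tested at one dose only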
#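 Cells in DMEM/10% FBS with G418 were pretreated with compounds in DMSO plus […] (300 uM stock) for 30 min at 37C. cAMP was measured by HTRF (cAMP-d2 plus anti-cAMP antibody-K) after 30 min at room temperature.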
# Six1-Eya2 inh = Six1/Eya2 interaction inhibition; Q15475+O00167; AlphaScreen GST-Six1/His-Eya2 binding, biochemical; hits give low values; control for the full effect not named in the record; activity change, % (test concentration not listed); actives 0.56% (n = 360,000); AID 651725; in the data active = activity change below about -65%; inconclusive = about -30% to -65%; inactive = above about -30%; note: % is set by controls: 0 for no effect and ±100 for the full control effect; compound concentration not given in the record
#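 AlphaScreen with GST-Six1 and His-Eya2 (5X mix: 250 nM and 500 nM), glutathione donor and nickel acceptor beads; buffer 50 mM Tris pH 8.0, 300 mM NaCl, 1 mM TCEP; 1 h at 37 C in the dark.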
# CtBP-E1A inh = inhibitors of CtBP/E1A interaction. AlphaScreen GST-E1A/His-CtBP binding, 1536-well; hits give low values; control for the full effect not named in the record. activity change, % (test concentration not listed). actives 0.49% (n = 340,000). AID 651724; in the data active means activity change below about -65%; inconclusive means about -30% to -65%; inactive means above about -30%; note: % is set by controls: 0 for no effect and ±100 for the full control effect; compound concentration not given in the record
#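 In 5 uL wells, 23 nL compound meets equimolar GST-E1A and His-CtBP (5X stock 125 nM each) for 2 h, 37 °C. Beads (5X, 50 ug/mL) then 1 h, 37 °C, dark.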
# D2 potentiator = potentiates the human D2 dopamine receptor allosterically. potentiation, % (concentration not given with the values). AID 624464. actives 0.23% (n = 360,000). DiscoveRx D2 beta-arrestin cells, luminescence, 90 min; 100% = 57 uM dopamine signal; active = potentiation of 50% or more; inconclusive = 30% to 50%; inactive = 30% or less;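 note: compound concentration not given in the record; tested on top of an EC20 dose of dopamine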
# Target sequence (P14416 whole entry, looked up): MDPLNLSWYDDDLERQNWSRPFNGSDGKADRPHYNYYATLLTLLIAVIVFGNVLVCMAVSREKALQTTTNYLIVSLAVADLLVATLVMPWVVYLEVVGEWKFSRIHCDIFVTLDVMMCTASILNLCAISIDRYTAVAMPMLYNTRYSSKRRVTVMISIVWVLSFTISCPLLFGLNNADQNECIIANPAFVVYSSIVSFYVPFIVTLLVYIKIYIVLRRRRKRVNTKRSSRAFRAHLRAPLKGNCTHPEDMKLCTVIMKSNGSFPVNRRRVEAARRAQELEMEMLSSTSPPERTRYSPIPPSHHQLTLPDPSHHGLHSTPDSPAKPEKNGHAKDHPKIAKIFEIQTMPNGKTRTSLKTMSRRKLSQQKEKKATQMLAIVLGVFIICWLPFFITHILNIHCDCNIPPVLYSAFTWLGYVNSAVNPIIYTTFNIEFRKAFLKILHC
#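 D2 cells co-treated with compound plus 50 nM dopamine (EC20) for 90 min at 37 deg C to detect potentiation. Beta-arrestin recruitment was read as enzyme-fragment luminescence after 1 h at ambient temperature. Full response was set by 57 uM dopamine.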
# gsp antag = gsp mutant antagonism; AID 624288; gsp-mutant cells, cAMP HTRF, 30 min; control for the full effect not named in the record; Potency, µM (series often up to 76.9 µM), inactives show at the highest dose activity change, negative = inhibition, most hits filed as inhibitors; actives 0.4% (n = 340,000); active = falling curve of any shape with a large fitted effect; inconclusive = falling curve, mostly with a smaller effect; inactive = flat or rising curve; cell line not stated here;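 note: intracellular cAMP measured with PDE inhibitor Ro 20-1724 present during compound exposure; potency is the fitted concentration of half-maximal effect; % is set by controls: 0 for no effect and ±100 for the full control effect; nearly all actives have a fitted effect of over 65% in size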
#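 Cells in G418 medium, seeded 16-24 h, 37C; buffer exchange to DPBS + 1 mM CaCl2, 0.5 mM MgCl2, 0.05% BSA; cpds in DMSO + […] (300 uM stock), 30 min 37C; HTRF cAMP detection.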
# D2 ag = activates the human D2 dopamine receptor. P14416. DiscoveRx PathHunter D2 beta-arrestin, luminescence, 90 min; 100% = 57 uM dopamine signal. activation, % (no concentration beside the values). actives 0.084% (n = 360,000). AID 624465; in the data active = activation above about 40%; inconclusive = about 15% to 40%; inactive = below about 15%; note: compound concentration not given in the record; the text of the record calls up to 30% inactive
#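 DiscoveRx PathHunter D2 beta-arrestin cells (2,100/well) attached overnight, then compound-stimulated 90 min at 37 C in HBSS/10 mM HEPES/0.1% Tween-20 buffer; beta-galactosidase complementation read by luminescence after 1 h at ambient temperature. Dopamine 57 uM final (EC100) as control.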
# * hit, by the source's call; ? = inconclusive; · = no result given; & = joins results of further samples; [ ] = remark or other dose.
SMILES,gsp ag,Six1-Eya2 inh,CtBP-E1A inh,D2 potentiator,gsp antag,D2 ag
CCN(CC)S(=O)(=O)c1ccc(OC)c(NS(=O)(=O)Cc2ccccc2)c1,11%,9,-2,-2,-4%,-3.0
O=C(CN1C(=O)CCSc2ccc(S(=O)(=O)N3CCOCC3)cc21)Nc1ccccc1Cl,-39%,8,-10,-5,9%,14
CCn1cc(CNC(=O)CCSc2nc(-c3ccco3)cc(C(F)(F)F)n2)cn1,4%,-3,-8,-11,2%,-0.8
COc1ccc(/C=C/C(=O)NC(=S)NNC(=O)c2cc(OC)c(OC)c(OC)c2)cc1,2%,-25,·,-21,-8%,-9.4
NS(=O)(=O)c1ccc(CNC(=O)CSc2nc3ccc(Cl)cc3[nH]2)cc1,8%[15.4 µM],10,9,-5,3%,3.5
CN(Cc1c(C(=O)N2CCc3ccccc3C2)nc2ccc(Cl)cn12)C(C1CC1)C1CC1,-3%,3,·,-12,6%,-7.3
CCSc1nc(-c2cccs2)nc2ccccc12,-1%[15.4 µM],49,38,-5,6%,-4.6
C[C@@H](NC(=O)c1nc[nH]c1C(=O)N1CCN(c2ccccc2)CC1)c1ccccc1,·,-2,-4,-13,-1%,-2.0
O=C(Nc1ccc(F)cc1)c1cccc(N2C(=O)C3C4C=CC(C5CC45)C3C2=O)c1 (stereo not drawn),-19%,1,6,-5,-22%,1.1
COCCCNc1nc(N)c([N+](=O)[O-])c(Nc2ccccc2OC)n1,11%[15.4 µM],?,?,0,16%,-0.5
COCC(C)n1c(C)cc(C(=O)CN2c3cccc4cccc(c34)S2(=O)=O)c1C (stereo not drawn),17%,-19,-12,-1,-21%,6.3
COCCNC(=O)c1cccc(OC2CCN(C(C)COc3ccccc3)CC2)c1 (stereo not drawn),-9%,-4,9,-2,2%,-3.0

# Laid out differently: four of the compounds above
# Sequence of screens – gsp ag, Six1-Eya2 inh, CtBP-E1A inh, D2 potentiator, gsp antag, D2 ag
- COc1ccc(/C=C/C(=O)NC(=S)NNC(=O)c2cc(OC)c(OC)c(OC)c2)cc1
→ 2%, -25, ·, -21, -8%, -9.4
- NS(=O)(=O)c1ccc(CNC(=O)CSc2nc3ccc(Cl)cc3[nH]2)cc1
→ 8%[15.4 µM], 10, 9, -5, 3%, 3.5
- COCCNC(=O)c1cccc(OC2CCN(C(C)COc3ccccc3)CC2)c1 (stereo not drawn)
→ -9%, -4, 9, -2, 2%, -3.0
- COCC(C)n1c(C)cc(C(=O)CN2c3cccc4cccc(c34)S2(=O)=O)c1C (stereo not drawn)
→ 17%, -19, -12, -1, -21%, 6.3

# (continued)
SMILES,gsp ag,Six1-Eya2 inh,CtBP-E1A inh,D2 potentiator,gsp antag,D2 ag
CC(C)n1ncc2c(C(=O)NCC(=O)Nc3ccccc3Br)cc(C3CC3)nc21,27%,-4,-6,-2,-16%,0.4
COc1ccc(C(=O)NC(=S)Nc2ccc(CN3CCOCC3)cc2)cc1Br,-20%,?,·,-20,-5%,8.2
C=CCn1c(SCC(=O)Nc2ccc3c(c2)CCC3)nnc1-c1cccs1,-36%[inhibitor],-4,0,-34,-14%,-3.5
O=C(CN1CCN(c2ccccc2Cl)CC1)NC1CCCc2ccccc21 (stereo not drawn),1%,-3,1,-20,-20%,-1.5
O=C(Nc1cccc(C(=O)Nc2ccc(Br)cc2)c1)c1ccccc1,-26%,-6,·,-10,3%,8.1
CCOc1ccc(NC(=O)CN(c2ccc(OC)c(OC)c2)S(=O)(=O)c2ccc(C)cc2)cc1,-20%,0,5,-5,?,-5.9
CC(=O)NC1=NN(C(C)=O)C(c2cccs2)S1 (stereo not drawn),-5%,15,5,6,24%,-0.1
O=C(COC(=O)Cc1ccccc1F)NNC(=O)c1ccc(Cl)cc1,-6%[15.4 µM],-1,1,-18,13%,-5.5
CCn1cc(C(=O)N2CCCC(N3CCN(c4ccccc4C)CC3)C2)cn1 (stereo not drawn),-57%[inhibitor],-1,4,-28,9%,1.4
Nc1ncnc2c1ncn2C1OCC(O)C1O (stereo not drawn),·,3,6,2,·,5.7
CCOC(=O)c1nc2cc3n(c(CC(C)C)c-2c1C)CC(C)=C3C,0%,-2,1,-10,16%,-1.3
NC(=O)c1ccc(N2CCNC(=O)C2)c([N+](=O)[O-])c1,3%[15.4 µM],37,10,-6,-12%,-4.8
COc1ccc(C/C(=N\O)c2ccc(OC)cc2)cc1,-20%,-3,-1,0,?,-2.4
O=C1Cc2cccc(=O)c(O)c2C(=O)O1,-6%,?,-12,0,·,-2.1
COc1cc2cc(CCCOC(=O)c3ccc(C(F)(F)F)cc3)oc(=O)c2cc1OC,4%,3,2,-10,-5%,0.7
C#CCOCCOCCOCCNc1nc(N2CCN(C(=O)C([C@@H](C)O)n3cc([C@@H](N)CCCCN)nn3)CC2)nc(N2CCN(C(=O)[C@H](CC(N)=O)n3cc(C(N)[C@@H](C)CC)nn3)CC2)n1 (stereo partly drawn),·,-8,-7,·,6%,-3.0
COc1ccccc1N1CCN(CCCn2c(=S)[nH]c3ccccc3c2=O)CC1,2%,-21,?,-36,-14%,2.4
COc1ccc(Cl)cc1C(=O)OCC(=O)N(CC(C)C)c1c(N)n(Cc2ccccc2)c(=O)[nH]c1=O,-8%,8,-8,-4,5%,-7.9
C=CCNC(=O)/C(C#N)=C/c1c(N2CCN(c3ccccc3)CC2)nc2c(C)cccn2c1=O,8%[15.4 µM],-6,10,-1,-41%,-1.4
CCc1ccc2c(c1)[C@H]1OCC[C@H]1[C@@H](c1cccs1)N2,16%,-9,-5,-10,-12%,-0.3
CC1Oc2ccccc2C=C1/C=N/NC(=O)c1ccccc1 (stereo not drawn),-1%[15.4 µM],-4,4,-7,1%,-1.8
Cn1c(=O)c2c(SCc3ccccc3)nc(C3CC3)nc2n(C)c1=O,24%[15.4 µM],0,-1,0,-14%,-1.9
O=C(NCc1ccccn1)c1cccc(NS(=O)(=O)c2cccc(F)c2)c1,16%[15.4 µM],-8,10,-3,-6%,-0.8
S=C1N(c2ccccc2)C(c2cccc3ccccc23)N2CCCN12 (stereo not drawn),0%,2,4,-3,-23%,1.3
O=C(NC(=S)NC1CCCCC1)c1ccccc1,-7%[15.4 µM],0,-3,-6,-4%,4.2
C/C(=N\NC(=O)c1nnn(-c2nonc2N)c1-c1ccccc1)c1ccco1,?,0,-4,-14,6%,-15
O=C(O)COc1ccc(/C=N/n2cnc3scc(-c4cccs4)c3c2=O)cc1,-2%,-2,-4,-10,12%,-1.8
CC(C)OCCCNC(=O)c1ccc2c(c1)S(=O)(=O)c1ccccc1C2=O,26%,-3,2,72*,12%,1.4
Cn1c(N2CCC(C(N)=O)CC2)nc2c1c(=O)n(Cc1ccc(Br)cc1)c(=O)n2C,9%,-8,-7,-14,-6%,-1.7
CCOC(=O)Nc1sc(C)c(C)c1C(N)=O,5%,0,-1,13,10%,0.9
O=C(O)CC(c1ccccc1)n1cnnn1 (stereo not drawn),7%,3,0,2,3%,-0.4
CCN(CC)c1cc2c(c3c1ccn3C)C1CCC2C1 (stereo not drawn),·,?,?,-13,·,14
CN(CC(=O)Nc1ccc(Cl)c(C(F)(F)F)c1)C(=O)CCN1C(=O)C2CC=CCC2C1=O (stereo not drawn),-36%[inhibitor],-4,2,13,-1%,-3.6
CC(C)NC(=O)CCCc1c[nH]c2ccccc12,16%,-3,·,14,10%,-4.0
COc1ccc(S(=O)(=O)NC(C)C(=O)O)cc1 (stereo not drawn),-11%,5,6,-12,5%,1.5
CCN(CCNC(=O)C1CCN(S(C)(=O)=O)CC1)c1ccccc1,5%,2,10,-4,-2%,-0.4
COc1ccc(NC(=O)CN(c2ccc(OC)c(Cl)c2)S(=O)(=O)c2ccccc2)cc1,-21%,-4,6,-4,-25%,-0.2
COc1cc2ccccc2cc1C(=O)OCC(=O)c1c(N)n(C)c(=O)n(C)c1=O,-44%[inhibitor],?,-2,-21,-26%,-1.3
O=C(Nc1ccc2c(c1)OCCO2)c1cc(-n2cnnc2)ccc1Cl,1%,12,-9,3,-9%,-0.2
O=C(CCCCn1c(=O)[nH]c2ccccc2c1=O)N1CCN(c2ncccn2)CC1,25%,3,4,8,1%,-4.2
O=C(Nc1ccccc1Cl)c1ccc(Cl)cc1Cl,-5%,2,-22,6,0%,2.2
CCC(=O)c1cn(CC(=O)Nc2ccc(F)cc2)c2ccccc12,29%,-3,-14,-15,·,-12
Nc1nc2c(ncn2[C@@H]2O[C@H](CNCc3ccc(F)c(N4CCOCC4)c3)[C@@H](O)[C@H]2O)c(=O)[nH]1,·,2,4,-5,·,-1.2
CC1=C(C(=O)N2CCCCCC2)CC(CC(=O)NCCc2ccccn2)C(=O)N1Cc1ccccc1 (stereo not drawn),·,24,31,2,·,2.8
CCOc1ccc(OCCCCOc2ccccc2C(C)=O)cc1,12%,29,44,-1,-1%,-2.9
CC(C)c1ccc2[nH]c(O)c(N=NC(=O)c3cccc(S(=O)(=O)Nc4ccc(Cl)cc4)c3)c2c1,2%[15.4 µM],3,-2,-18,-7%,-3.2
O=C(CN1CCC(c2nc3ccccc3s2)CC1)NCc1cccs1,27%,-3,0,-10,?,-7.0&-1.4
Cc1ccc(/C=N/NC(=O)C(C)NC(=O)c2ccccc2)cc1 (stereo not drawn),-3%[15.4 µM],6,17,-8,2%,4.6
O=C(O)c1cc(N2C(=O)CCC2=O)ccc1Cl,10%[15.4 µM],0,-3,-5,2%,2.5
O=C(NCc1cccnc1)c1cccc(S(=O)(=O)N2CCOCC2)c1,?,6,-9,-10,2%,-0.5
CN(C)CCNC(=S)Nc1ccccc1Cl,0%[15.4 µM],1,6,-10,-3%,-3.4

# Entries shown so far with a thiophene ring, fused or not:
SMILES,gsp ag,Six1-Eya2 inh,CtBP-E1A inh,D2 potentiator,gsp antag,D2 ag
CCSc1nc(-c2cccs2)nc2ccccc12,-1%[15.4 µM],49,38,-5,6%,-4.6
C=CCn1c(SCC(=O)Nc2ccc3c(c2)CCC3)nnc1-c1cccs1,-36%[inhibitor],-4,0,-34,-14%,-3.5
CC(=O)NC1=NN(C(C)=O)C(c2cccs2)S1 (stereo not drawn),-5%,15,5,6,24%,-0.1
CCc1ccc2c(c1)[C@H]1OCC[C@H]1[C@@H](c1cccs1)N2,16%,-9,-5,-10,-12%,-0.3
O=C(O)COc1ccc(/C=N/n2cnc3scc(-c4cccs4)c3c2=O)cc1,-2%,-2,-4,-10,12%,-1.8
CCOC(=O)Nc1sc(C)c(C)c1C(N)=O,5%,0,-1,13,10%,0.9
O=C(CN1CCC(c2nc3ccccc3s2)CC1)NCc1cccs1,27%,-3,0,-10,?,-7.0&-1.4
